From PubChem BioAssay
Ecoli growth: E. coli growth inhibition, primary screen, OD600; OD600 absorbance (test concentration not listed); 0.21% of 330,000 active; Escherichia coli growth, 23 h; hits give low values;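 active = OD600 absorbance below the run mean of sample wells minus 3.6 SD, in any replicate, cut at about 0.56 in these data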;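 also: stock transfer was 300 nL into about 60 µL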
HNF4A DNA FP: change in binding of human HNF4A to DNA, primary screen, biochemical, fluorescence polarization, FITC-DNA; Hepatocyte nuclear factor 4-alpha (Homo sapiens), P41235; 1 h; activity change, % at 10 µM; 0.3% of 360,000 active; in the data active = activity change above about 30%, passing the limit was not always enough;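 also: controls were the assay level and a saturating level of protein; the project sought stronger binding though the title names inhibitors; some compounds called inactive have numbers as strong as hits; positive values seem to mean higher polarization but the record does not say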
FGF22 binding: binders of human FGF22 protein, primary screen, FGF22 synaptogenesis inhibitor project, biophysical, thermal shift, single point; Fibroblast growth factor 22 (Homo sapiens), Q9HCT0; calls only at 9.99 µM; recombinant FGF22 thermal shift, SYPRO orange fluorescence; percent of sucrose octasulfate shift, DMSO zero; 1.5% of 340,000 active;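 active = melting point raised past a set limit in the mean and every replicate; inconclusive = no clear call; three in four hits are not shown here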
Target sequence (Q9HCT0 whole entry, looked up): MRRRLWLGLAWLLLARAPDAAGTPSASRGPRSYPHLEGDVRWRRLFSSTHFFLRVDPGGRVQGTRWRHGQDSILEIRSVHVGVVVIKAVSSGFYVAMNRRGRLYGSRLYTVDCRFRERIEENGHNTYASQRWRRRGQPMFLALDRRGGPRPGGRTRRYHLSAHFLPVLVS
Ecoli rRNA inh: reduced GFP signal of wild-type E. coli, primary screen, bacterial rRNA inhibitor project, GFP/RFP fluorescence, OD600, single point; E. coli WT GFP vs humanized-ribosome RFP mutants, 24 h; hits give low values; DMSO median 0, no signal -100; GFP signal change (wild-type ribosome), % (concentration not given with the values); 1.6% of 350,000 active; AID 720706, 2013;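 active = significant combined selectivity score with lowered wild-type GFP, culture density cut under 30%, mutant RFP and density less affected; inactive = any of these conditions unmet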; also: one replicate is shown; some compounds called inactive have numbers as strong as hits
MLL AF4-AF9 inh: inhibitors of AF4 peptide binding to AF9, primary screen, biochemical, AlphaScreen, biotin-AF4 peptide, FLAG-AF9, single point. Protein AF-9 (Homo sapiens), P42568. inhibition, % at 10 µM. 0.47% of 350,000 active. AID 651704, 2012;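 active = every replicate reaching a set inhibition limit, whatever the replicate mean, cut at about 25% in these data; inconclusive = mean inhibition reaches that limit but some replicates miss it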;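 also: 0% = plate neutral control median and 100% = total signal loss; the record names both 10 and 1 µM as test concentration; the first replicate is given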
Target sequence (P42568 whole entry, looked up): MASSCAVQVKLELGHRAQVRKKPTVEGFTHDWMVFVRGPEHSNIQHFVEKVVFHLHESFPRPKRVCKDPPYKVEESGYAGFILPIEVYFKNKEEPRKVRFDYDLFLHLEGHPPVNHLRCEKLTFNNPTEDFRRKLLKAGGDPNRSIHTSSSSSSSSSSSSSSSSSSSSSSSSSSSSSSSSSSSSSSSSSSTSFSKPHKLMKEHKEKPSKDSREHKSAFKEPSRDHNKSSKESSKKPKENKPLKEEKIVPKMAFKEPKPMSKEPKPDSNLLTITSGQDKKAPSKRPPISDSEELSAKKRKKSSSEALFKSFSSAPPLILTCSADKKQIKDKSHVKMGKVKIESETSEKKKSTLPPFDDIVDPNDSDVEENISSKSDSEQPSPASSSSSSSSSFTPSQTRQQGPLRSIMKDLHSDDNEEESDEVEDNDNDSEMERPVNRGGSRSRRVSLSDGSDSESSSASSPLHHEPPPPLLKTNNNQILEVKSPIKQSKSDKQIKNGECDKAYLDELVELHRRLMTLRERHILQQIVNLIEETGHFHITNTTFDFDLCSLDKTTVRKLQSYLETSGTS
Vif TR-FRET: inhibitors of Vif binding to APOBEC3G peptide, primary screen, biochemical, TR-FRET, GST-Vif 1-94, biotin-A3G peptide, dose response retest (AID 1117319). Virion infectivity factor (Human immunodeficiency virus type 1 group M subtype B (isolate …. TR-FRET GST-Vif / biotin-A3G peptide binding; higher % means a stronger effect; test concentration not given here; strong numbers were not always called active. one-dose inhibition, %; IC50 in µM for titrated hits. 0.57% of 260,000 active;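 active = above the screen mean plus three standard deviations and confirmed in dose response; inconclusive = results disagree or hit not tested in dose response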;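 also: Vif residues 1-94 fused to GST binding biotinylated APOBEC3G peptide 110-148; 0% = full assay without inhibitor and 100% = GST in place of GST-Vif; retest series ran down from 100 µM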
ALR inh: inhibitors of human ALR sulfhydryl oxidase, primary screen, biochemical, H2O2 detection, HRP-luminol luminescence, single point. 3.8% of 290,000 active. inhibition, % (concentration not given with the values). FAD-linked sulfhydryl oxidase ALR (Homo sapiens), P55789. purified ALR, DTT oxidation;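 active = mean and each replicate at 75% or more; inconclusive = only one of the two met; inactive = neither met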;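 also: stock transfer was 7.5 nL into about 7.5 µL; 0% = neutral wells and 100% = wells with inactivated enzyme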
Target sequence (P55789 whole entry, looked up): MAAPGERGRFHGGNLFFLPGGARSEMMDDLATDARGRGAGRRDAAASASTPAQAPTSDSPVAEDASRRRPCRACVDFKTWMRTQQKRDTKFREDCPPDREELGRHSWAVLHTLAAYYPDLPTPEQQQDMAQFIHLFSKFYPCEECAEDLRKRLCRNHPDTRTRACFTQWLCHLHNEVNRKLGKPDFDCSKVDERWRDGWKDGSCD
Ecoli rRNA inh OD600: further read-out of Ecoli rRNA inh, marked with its call; OD600 change, %; measured here: OD600 growth;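 optical density of the mix in the first replicate; 0 = DMSO median and -100 = no signal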
Ecoli rRNA inh RFP: second read-out of Ecoli rRNA inh, no call of its own (marks repeat the call); RFP signal change, %; measured here: RFP humanized mutant strains;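 first replicate; 0 = DMSO median and -100 = no signal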
The depositor's hits bear a star; i = inactive; ? = inconclusive; . = no result given.

SMILES | Ecoli growth | HNF4A DNA FP | FGF22 binding | Ecoli rRNA inh | Ecoli rRNA inh OD600 | Ecoli rRNA inh RFP | MLL AF4-AF9 inh | Vif TR-FRET | ALR inh
Cc1noc(C)c1NC(=O)Nc1ccc2c(c1)C(=O)N(C)[C@@H]1CC[C@@H](CC(=O)N[C@H]3CCN(Cc4ccccc4)C3)O[C@H]1CO2 | . | . | i | 1 | 9 | -0.4 | 0.6 | . | .
C/C(CC(=O)Nc1ccccc1Cl)=N\NC(=O)C(=O)NCCO | . | 1.8 | i | 0 | -7 | 4.1 | -1.4 | 4% | 17
O=C(CSc1nnc(N2CCCC2)n1-c1ccccc1Cl)N1CCN(c2ccccn2)CC1 | 0.66 | 0.4 | i | -3 | -8 | 0.7 | -1.0 | 0% | .
Cc1cc(Cl)c2oc(C(=O)NCCN3CCCCC3CO)c(C)c2c1 (configuration not stated) | 0.66 | 0.4 | i | -2 | 1 | 7.1 | 0.9 | -9% | -1
CCCCN(C)CCC(=O)Nc1ccc(C)cc1 | 0.66 | 2.0 | i | 16 | 14 | -0.1 | 0.9 | 31% | 6
COc1ccc(/C=C/C(=O)NCc2cccnc2)cc1 | 0.69 | 4.5 | i | 7 | 6 | 4.0 | -5.9 | 5% | 6
CCC(=O)Nc1ccc2c(c1)C(=O)N(C)C[C@@H](OC)[C@H](C)CN(Cc1ccccn1)[C@H](C)CO2 | . | . | i | -3 | 0 | -1.3 | 0.8 | . | .
O=C(CCN1C(=O)C2C3CC(C(Br)C3Br)C2C1=O)OCC(=O)c1cccc([N+](=O)[O-])c1 (configuration not stated) | 0.68 | 0.5 | i | -3 | 4 | -1.6 | -0.8 | . | .
C[C@@H]1CN([C@@H](C)CO)C(=O)c2cccc(NC(=O)c3ccncc3)c2O[C@@H]1CN(C)C(=O)Nc1ccc(F)cc1 | . | . | i | 0 | -1 | -1.7 | 0.2 | . | .
O=C(CSc1ccc2c(c1)OCCO2)NCC1CCCO1 (configuration not stated) | 0.69 | -2.7 | . | . | . | . | . | -12% | 25
COC(=O)c1ccc(NC(=S)N2CCN(CCO)CC2)cc1 | 0.69 | 1.0 | i | 4 | 6 | 5.1 | -3.3 | . | -12
C[C@H](CO)N1C[C@H](C)[C@H](CN(C)S(=O)(=O)c2cn(C)cn2)OCCCC[C@H](C)Oc2ccc(NS(=O)(=O)c3cn(C)cn3)cc2C1=O | . | . | i | 3 | 12 | -0.7 | -8.4 | . | .
CCOc1ccc(-c2nc(C)c(C(C)=O)n2O)cc1 | 0.66 | -4.6 | . | . | . | . | . | 7% | 14
COc1ccc(-c2nc(C#N)c(NCc3ccco3)o2)cc1 | 0.71 | -0.3 | i | -26 | -27 | -6.5 | 1.8 | -1% | 0
CCCCC(=O)Nc1ccc(NC(=O)c2ccccc2[N+](=O)[O-])cc1OC | 0.68 | 0.9 | . | . | . | . | . | 1% | .
O=C(Nc1ccc(F)cc1)N[C@H]1CC[C@H](CC(=O)N2CCCCC2)O[C@H]1CO | . | . | i | 1 | -3 | 0.4 | -9.5 | . | .
Cc1cc(NC(=O)CCC(=O)N(CC2CCCO2)C(C(=O)NC2CCCC2)c2ccccc2C)no1 (configuration not stated) | 0.74 | 4.8 | . | . | . | . | . | . | 3
C[C@@H]1CN([C@@H](C)CO)C(=O)Cc2cc(NS(C)(=O)=O)ccc2O[C@H]1CN(C)S(=O)(=O)c1ccc(Cl)cc1 | . | . | i | -9 | -7 | -2.0 | -2.1 | . | .
Cc1c(OCC(=O)NCCCN2CCOCC2)ccc2c3c(c(=O)oc12)CCCC3 | 0.7 | -0.6 | i | 5 | 9 | 4.6 | -0.7 | . | -5
CCCC#Cc1cnc2c(c1)C(=O)N([C@@H](C)CO)C[C@@H](C)[C@H](CN(C)C)O2 | . | . | i | 1 | 6 | -5.5 | -0.7 | . | .
C/C(=N\Nc1cccc(Cl)c1)c1ccc(-n2ccnc2)cc1 | . | 0.1 | i | . | . | . | 5.5 | -3% | .
CC(=O)N(C)C[C@H]1Oc2cc(C#CCC3CCCC3)ccc2S(=O)(=O)N([C@H](C)CO)C[C@@H]1C | . | . | i | -19 | -65 | 17 | 8.7 | . | .
COC(=O)c1ccc(-c2ccco2)n1Cc1ccccc1Cl | 0.75 | 2.0 | . | . | . | . | . | 2% | 9
CCN(CC)S(=O)(=O)c1cccc(C(=O)Nc2nncs2)c1 | 0.71 | 1.4 | . | . | . | . | . | 12% | -1
CN(C(=O)C1CCOC1)c1nnc(-c2cccnc2)s1 (configuration not stated) | 0.66 | 0.2 | . | . | . | . | . | 1% | -3
Cc1n[nH]c(C)c1NC(=O)CN1CCN(S(=O)(=O)c2ccc(C(F)(F)F)cc2)CC1 | 0.59 | -2.2 | i | 6 | -7 | -2.2 | 0.2 | . | .
O=C(COc1ccc(Br)cc1)NCCN1CCCC1 | 0.62 | 0.4 | i | 9 | 8 | 0.6 | -0.7 | . | -12
Cc1ccccc1S(=O)(=O)NCC[C@@H]1CC[C@H](NS(=O)(=O)c2ccccc2C)[C@H](CO)O1 | . | . | i | -2 | -7 | -1.4 | 0.9 | . | .
CC(=O)NC(C(=O)c1ccccc1)C(=O)c1ccccc1 | 0.64 | -2.2 | . | . | . | . | . | -6% | 5
COc1ccc(NC(=O)CSc2cc(C)nc3c(-c4ccccc4)cnn23)cc1 | 0.67 | 0.6 | i | -1 | 4 | 2.2 | 0.7 | -10% | -3

Continued; it opens with the 5 that closed the last part.
SMILES | Ecoli growth | HNF4A DNA FP | FGF22 binding | Ecoli rRNA inh | Ecoli rRNA inh OD600 | Ecoli rRNA inh RFP | MLL AF4-AF9 inh | Vif TR-FRET | ALR inh
Cc1n[nH]c(C)c1NC(=O)CN1CCN(S(=O)(=O)c2ccc(C(F)(F)F)cc2)CC1 | 0.59 | -2.2 | i | 6 | -7 | -2.2 | 0.2 | . | .
O=C(COc1ccc(Br)cc1)NCCN1CCCC1 | 0.62 | 0.4 | i | 9 | 8 | 0.6 | -0.7 | . | -12
Cc1ccccc1S(=O)(=O)NCC[C@@H]1CC[C@H](NS(=O)(=O)c2ccccc2C)[C@H](CO)O1 | . | . | i | -2 | -7 | -1.4 | 0.9 | . | .
CC(=O)NC(C(=O)c1ccccc1)C(=O)c1ccccc1 | 0.64 | -2.2 | . | . | . | . | . | -6% | 5
COc1ccc(NC(=O)CSc2cc(C)nc3c(-c4ccccc4)cnn23)cc1 | 0.67 | 0.6 | i | -1 | 4 | 2.2 | 0.7 | -10% | -3
CC1(C(=O)N2Cc3ccccc3C2)CCN1C(=O)C1(c2ccccc2)CC1 (configuration not stated) | . | 3.1 | i | . | . | . | 3.2 | . | .
COc1ccccc1-c1nn(Cc2ccccc2)cc1C(=O)NCC(c1ccco1)N1CCCC1 (configuration not stated) | 0.66 | 5.3 | i | 2 | 1 | 2.0 | 1.3 | . | -33
CCCc1nc2sc3c(c2c(=O)n1NC(=O)CCCl)CCCC3 | 0.71 | -0.7 | . | . | . | . | . | 8% | .
Cc1cc(C)c(NC(=O)CS(=O)CC(=O)Nc2ccc(F)cc2F)c(C)c1 (configuration not stated) | 0.69 | -2.1 | i | 20 | 17 | -2.6 | 1.0 | . | -2
CC(=O)Nc1cccc(NC(=O)CSc2ccc3nnc(CCNC(=O)c4ccccc4)n3n2)c1 | 0.65 | 1.7 | i | 7 | 6 | -1.6 | 5.4 | 0% | -8
Cc1cc(C(C)(C)C)ccc1OCCN(C)C | 0.74 | -3.0 | . | . | . | . | . | 70% | -4
CCOC(=O)NC(=O)/C(N=Nc1cccc(C(F)(F)F)c1)=C(\C)O | 0.69 | -1.6 | i | -1 | -2 | 3.7 | -2.4 | 10% | -28
O=C(N/N=C/c1ccccc1O)C1CCCC1 | . | -2.6 | i | 0 | -5 | 0.8 | -0.3 | -1% | 21
COc1ccc(C)cc1NC(=O)CCC(=O)Nc1ccc2nc(N3CCN(C)CC3)cc(C)c2c1 | 0.7 | . | . | . | . | . | . | -4% | 2
O=C1C=C(c2cccc(Br)c2)C[C@@H](c2ccc3c(c2)OCO3)C1 | . | 0.0 | i | -9 | -8 | -7.6 | 5.3 | . | 0
Cc1ccc(S(=O)(=O)N2CCCCC2)cc1NC(=O)COC(=O)c1ccc(O)cc1 | 0.69 | -1.0 | i | -25 | -20 | -9.3 | -4.8 | -1% | -6
CN(C(=S)NCCN1CCOCC1)C(c1ccccc1)c1ccccc1 | 0.69 | -0.5 | i | -5 | -6 | 1.5 | 2.7 | 1% | 2
CC1CCCCN1CCCNC(=O)c1cc(Br)c(Br)[nH]1 (configuration not stated) | 0.69 | 3.3 | i | . | . | . | 5.4 | 30% | 9
Cc1csc2nc(CCNS(=O)(=O)c3ccc4c(c3)OCCO4)cn12 | 0.76 | 5.1 | i | 3 | -9 | -1.7 | -1.1 | ? | -3
O=C(CN1C(=O)NC(CCc2ccccc2)C1=O)Nc1ccc(F)c(F)c1F (configuration not stated) | 0.7 | 3.2 | i | 0 | -1 | 4.3 | 3.2 | . | -2
O=C(CSCc1ccc(Cl)cc1)N/N=C/c1ccccc1 | . | 2.4 | . | . | . | . | . | 11% | -7
O=C(NC1CCSC1=O)c1ccc(Oc2cccc(C(F)(F)F)c2)nc1 (configuration not stated) | 0.77 | 3.3 | . | . | . | . | . | -1% | -27
COc1ccc(S(=O)(=O)N(C)C[C@@H]2Oc3ccc(NC(=O)C4CC4)cc3C(=O)N([C@@H](C)CO)C[C@@H]2C)cc1 | . | . | i | 1 | -1 | 2.2 | -4.9 | . | .
C[C@H]1CN([C@@H](C)CO)C(=O)c2cc(NC(=O)C3CC3)ccc2O[C@@H]1CN(C)C(=O)Nc1ccc(C(F)(F)F)cc1 | . | . | i | 4 | 3 | -0.5 | -6.1 | . | .
Fc1ccc(Nc2nc(-c3cccnc3)cs2)cc1 | 0.73 | 1.3 | i | 4 | 12 | 2.7 | . | 5% | -2
CNC[C@@H]1OCCCC[C@H](C)Oc2ccc(N(C)C)cc2C(=O)N([C@H](C)CO)C[C@@H]1C | . | . | i | 4 | 6 | 0.2 | -1.0 | . | .
CSc1cccc(NC(=O)COC(=O)C2CCN(S(=O)(=O)c3ccccc3)CC2)c1 | 0.7 | 2.0 | i | -9 | -17 | 11 | 0.4 | -11% | -1
COc1c2ccoc2nc2c(OC)c(O)ccc12 | 0.73 | -0.2 | i | -1 | 4 | 8.1 | -1.6 | 1% | 99*
Cc1cc(=O)[nH]c(SCC(=O)N2CCCCC2)n1 | 0.67 | 2.8 | i | 11 | 9 | 5.5 | -1.0 | 2% | -4
NC(=S)c1ccc(OCCCc2ccccc2)cc1 | . | -0.7 | i | 2 | -1 | -2.0 | 0.6 | 1% | .
CCOC(=O)Cn1c(Br)nc2c1c(=O)[nH]c(=O)n2C | 0.65 | -1.8 | . | . | . | . | . | 7% | -1
COCc1cn(CC[C@H]2CC[C@H](NC(=O)Nc3ccc(OC)cc3)[C@@H](CO)O2)nn1 | . | . | i | 2 | 6 | -0.7 | -0.8 | . | .

Only part of the results is shown; count on the stated rates, not on these rows.
